High-throughput results as filed in PubChem BioAssay.
CtBP-E1A inh = qHTS Assay for Inhibitors of the CtBP/E1A Interaction; activity change, % (concentration not given with the values); AlphaScreen GST-E1A/His-CtBP binding, 1536-well; stronger effect = lower value; control for the full effect not named in the record; AID 651724, 2012; 0.49% of 340,000 active; CtBP / adenovirus E1A interaction (AlphaScreen); in the data active means activity change below about -65%; inconclusive means about -30% to -65%; inactive means above about -30%; note: % is set by controls: 0 for no effect and ±100 for the full control effect
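In 5 uL wells, 23 nL compound meets equimolar GST-E1A and His-CtBP (5X stock 125 nM each) for 2 h, 37 °C. Beads (5X, 50 ug/mL) then 1 h, 37 °C, dark.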
TRPV1 potentiator = HTS Assay for Compounds that Act as Potentiators of the Vanilloid Receptor 1; Transient receptor potential cation channel subfamily V member 1 (Homo sapiens), Q8NER1; TRPV1-expressing cells, Fluo-8 calcium influx, capsaicin EC20 potentiation; host cell line not named in the record; control for the full effect not named in the record; potentiation, % at 8.33 µM; 0.02% of 320,000 active; AID 540277, 2011; active means potentiation above 80%; inconclusive means 30% to 80%; inactive means below 30%; note: 0% is about no effect
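Fluo-8 calcium influx in TRPV1-expressing cells, kinetic read (ex 480/em 520 nm). Compound added and read 3 min for agonist activity, followed by capsaicin at EC20 final and 2 min further read for enhancement.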
Sfp inh = qHTS Assay for Inhibitors of Bacillus subtilis Sfp phosphopantetheinyl transferase (PPTase) | 3.5% of 310,000 active | 4'-phosphopantetheinyl transferase ffp (Bacillus subtilis), Q9F4F7 | Potency, µM, without a hit: max response, negative = inhibition, actives largely listed as inhibitors | Biochemical Sfp PPTase activity, qHTS; active = well fitted inhibition curve with a large enough effect; inconclusive = small, poorly fitted or top-dose-only effect, or another doubt; inactive = no such curve, though single readings can be large or run the other way;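 note: the enzyme is Sfp with the accession as filed and its product quenches rhodamine fluorescence; potency is the fitted concentration of half-maximal effect; 0% = enzyme reaction without inhibitor and -100% = no enzyme wells; top concentration of the series not given in the record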
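Fluorescence-quenching assay with 15 nM Sfp, 5 uM rhodamine-CoA and 12.5 uM BHQ-2-labelled ybbR peptide in pH 7.6 Hepes/MgCl2 buffer. Enzyme was pre-incubated with compound for 15 min at room temperature. Rate was taken from the 30-min fluorescence change (525/598 nm).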
PINK1 modulator = A Quantitative High throughput Screen to Identify Chemical Modulators of PINK1 Expression | PINK1 immunofluorescence, high-content cytometry, 24 h | Potency, µM (series often up to 76.6 µM), for inactives: top-dose activation (PINK1 increase), actives largely listed as activators | 0.2% of 410,000 active; active = well fitted activation curve with a large enough effect; inconclusive = small, poorly fitted or top-dose-only effect; inactive = flat fitted curve, though single readings scatter; cell line not stated here;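 note: potency is the fitted concentration of half-maximal effect; % of control where 0% means no effect; nearly all actives have a fitted effect of over 65% in size; a mitochondrial uncoupler was the plate control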
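Compound titrations (5 concentrations, 24 h) on a stable cell line; DMSO and CCCP controls. Endpoint: fixed-cell PINK1 immunofluorescence with mitochondrial, cell and nuclear markers, scanned by microplate cytometer.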
D2 ag = Beta-Arrestin HTS for Positive Allosteric Modulators of the Human D2 Dopamine Receptor: Agonists; activation, % (no concentration beside the values); DiscoveRx PathHunter D2 beta-arrestin, luminescence, 90 min; 100% = 57 uM dopamine signal; 0.084% of 360,000 active; in the data active = activation above about 40%; inconclusive = about 15% to 40%; inactive = below about 15%; note: compound concentration not given in the record; the text of the record calls up to 30% inactive
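DiscoveRx PathHunter D2 beta-arrestin cells (2,100/well) attached overnight, then compound-stimulated 90 min at 37 C in HBSS/10 mM HEPES/0.1% Tween-20 buffer; beta-galactosidase complementation read by luminescence after 1 h at ambient temperature. Dopamine 57 uM final (EC100) as control.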
Six1-Eya2 inh = qHTS Assay for Inhibitors of the Six1/Eya2 Interaction; activity change, % (concentration not given with the values); Homeobox protein SIX1 (Homo sapiens) + Protein phosphatase EYA2 (Homo sapiens), …; 0.56% of 360,000 active; AlphaScreen GST-Six1/His-Eya2 binding, biochemical; stronger effect = lower value; control for the full effect not named in the record; AID 651725, 2012; in the data active = activity change below about -65%; inconclusive = about -30% to -65%; inactive = above about -30%; note: % is set by controls: 0 for no effect and ±100 for the full control effect
Target sequence (O00167 whole entry, looked up): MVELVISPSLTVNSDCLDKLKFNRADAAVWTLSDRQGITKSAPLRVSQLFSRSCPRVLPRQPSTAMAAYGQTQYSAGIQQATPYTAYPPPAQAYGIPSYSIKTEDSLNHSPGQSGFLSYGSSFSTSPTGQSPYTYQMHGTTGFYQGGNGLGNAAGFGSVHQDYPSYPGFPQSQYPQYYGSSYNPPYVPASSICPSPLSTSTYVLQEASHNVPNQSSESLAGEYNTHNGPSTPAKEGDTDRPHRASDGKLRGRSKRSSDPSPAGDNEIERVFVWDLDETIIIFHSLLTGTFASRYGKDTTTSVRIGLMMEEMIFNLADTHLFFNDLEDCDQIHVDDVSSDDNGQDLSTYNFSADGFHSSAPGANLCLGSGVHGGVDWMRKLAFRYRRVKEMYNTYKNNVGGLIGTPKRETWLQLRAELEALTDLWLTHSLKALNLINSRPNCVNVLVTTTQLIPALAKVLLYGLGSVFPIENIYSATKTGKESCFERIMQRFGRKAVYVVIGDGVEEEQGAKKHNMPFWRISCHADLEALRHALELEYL
Target sequence (Q15475 whole entry, looked up): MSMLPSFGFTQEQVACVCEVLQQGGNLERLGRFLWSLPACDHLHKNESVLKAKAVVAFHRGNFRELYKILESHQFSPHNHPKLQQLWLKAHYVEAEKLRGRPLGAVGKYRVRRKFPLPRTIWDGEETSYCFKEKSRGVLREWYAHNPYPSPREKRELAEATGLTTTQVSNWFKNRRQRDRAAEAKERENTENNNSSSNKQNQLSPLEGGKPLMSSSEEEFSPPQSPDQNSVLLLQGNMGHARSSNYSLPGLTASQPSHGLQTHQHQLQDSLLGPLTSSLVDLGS
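Compounds are tested against tagged Six1 and Eya2 proteins bridged by glutathione donor and nickel acceptor beads; after a one-hour incubation at 37 °C without light, AlphaScreen emission is recorded.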
D2 potentiator = Beta-Arrestin HTS for Positive Allosteric Modulators of the Human D2 Dopamine Receptor: Potentiators. potentiation, % (test concentration not listed). 0.23% of 360,000 active. DiscoveRx D2 beta-arrestin cells, luminescence, 90 min; 100% = 57 uM dopamine signal. AID 624464, 2012; active = potentiation of 50% or more; inconclusive = 30% to 50%; inactive = 30% or less;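 note: compound concentration not given in the record; tested on top of an EC20 dose of dopamine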
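D2 cells co-treated with compound plus 50 nM dopamine (EC20) for 90 min at 37 deg C to detect potentiation. Beta-arrestin recruitment was read as enzyme-fragment luminescence after 1 h at ambient temperature. Full response was set by 57 uM dopamine.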
Starred values were filed as active, the others as inactive; ? = inconclusive; . = no result given; [ ] = another dose, or the depositor's remark.

no.	SMILES	D2 potentiator	Sfp inh	TRPV1 potentiator	PINK1 modulator	Six1-Eya2 inh	D2 ag	CtBP-E1A inh
1	COc1ccc(NC(=O)CN2C(=O)NC(C)(C3CC3)C2=O)cc1S(=O)(=O)N1CCCCC1 (centres undefined)	-4	.	1	2.0%	7	-7.7	-16
2	CCCCc1c(-c2ccccc2OC)ncn1CCc1ccc(OC)cc1	.	.	.	?	-23	.	1
3	COc1ccc(CC(=O)c2ccc(O)cc2O)cc1	1	?	0	1.5%	-2	-2.6	4
4	COc1ccccc1N1CCN(C(=O)c2ccc3nc[nH]c3c2)CC1	-2	0%	6	-2.1%	-2	-6.6	-12
5	COC(=O)c1ccccc1N=NNc1ccc([N+](=O)[O-])cc1	-2	.	.	1.7%	-10	-0.8	-3
6	C=CCS/C(N)=N\N=C\c1cc(Br)cc([N+](=O)[O-])c1O	-5	11%	.	6.2%	0	-3.2	-8
7	CCN1CCN(c2ccc(S(=O)(=O)N3CCOCC3)cc2NC(=O)c2ccc(C)cc2C)CC1	1	.	-7	-0.2%	3	3.7	2
8	Cc1cc(=O)c(C(=O)O)c(C)n1-c1ccccc1	-1	.	.	2.1%	28	-2.1	-3
9	CNc1ncnc2c1ncn2[C@H]1CN(Cc2ccncc2)C[C@@H](CO)O1	0	.	.	0.1%	2	-3.9	6
10	COc1ccccc1NS(=O)(=O)c1cc(NC(=O)Nc2cccc(C)c2)ccc1N1CCCCC1	3	-15%	-4	2.4%	2	1.0	-10
11	O=C(NC1CCCCC1)C(c1ccc(O)c(O)c1)N(C(=O)Cn1nnc2ccccc21)c1cccc(O)c1 (centres undefined)	-2	15%	5	-0.4%	-1	-15	5
12	Cc1cc(Cl)ccc1Oc1ccccc1C(=O)CC#N	-7	3%	-2	1.1%	-1	-0.8	.
13	c1ccc2c(C3=NNC(=NC4CC4)SC3)c[nH]c2c1	-45	?	2	0.8%	-22	-6.2	-12
14	COc1ccccc1C1=NOC(CN2C(=O)c3ccccc3S2(=O)=O)C1 (centres undefined)	2	11%	0	1.4%	3	-4.7	0
15	CS(=O)(=O)n1nc(-c2cccnc2)nc1NCc1ccccc1	-3	27%	-9	-3.1%	8	0.2	-25
16	CN1CCN(c2ccc(S(=O)(=O)N3CCCCC3)cc2NC(=O)COc2ccc(F)cc2)CC1	-7	.	?	0.3%	1	0.3	1
17	CCN1C(=O)CSc2ccc(C(=O)NCc3ccco3)cc21	-14	21%	-30	1.9%[38.3 µM]	-2	0.8	-2
18	[O-]/C(=C(\C(=S)NCCN1CCOCC1)[n+]1ccccc1)c1ccc(Cl)s1	-7	3%	-3	3.0%	-3	1.7	-8
19	OC1c2c(F)cccc2N=C2CCCCCN21 (centres undefined)	-7	.	.	1.1%	12	-3.8	-11
20	CC(C(=O)N1CCOCC1)N1C(=O)c2ccccc2C1=O (centres undefined)	-5	0%	8	-1.0%	-6	-2.8	3
21	Cc1ccc(NC2=CC(=O)CC(c3ccc(Cl)cc3)C2)cc1 (centres undefined)	-31	-10%	-5	11%	3	-2.1	3
22	CCOc1ccc(N(CC(=O)N/N=C/c2cc(Br)c(C)o2)S(C)(=O)=O)cc1	-11	3%	14	1.8%	3	1.6	19
23	CC(C)CCN1C(Nc2ccccc2)=NC[C@@H]1CC(C)C	-9	12%	18	-1.0%	-2	-3.8	2
24	O=S(=O)(Nc1ccc(Br)cc1)c1cccc2cccnc12	-3	15%	-6	5.1%	-12	-3.7	-8
25	Cc1ccc2[nH]c3c(c2c1)CN(C(=O)CN1CCN(c2cccc(C)c2C)CC1)CC3	-17	2%	-12	6.2%	-19	-3.9	-10
26	Cc1nc2ccccc2n1C1CCN(CC(=O)NCc2ccc(F)cc2)CC1	-13	-12%	6	.	5	0.9	10
27	CNc1nc(-c2ccc3c(c2)CCN3C(=O)CC(C)(C)C)c(C)s1	-10	12%	6	0.0%	-4	-1.6	0

Part of the list above in order of formula weight, falling:
no.	SMILES	D2 potentiator	Sfp inh	TRPV1 potentiator	PINK1 modulator	Six1-Eya2 inh	D2 ag	CtBP-E1A inh
18	[O-]/C(=C(\C(=S)NCCN1CCOCC1)[n+]1ccccc1)c1ccc(Cl)s1	-7	3%	-3	3.0%	-3	1.7	-8
4	COc1ccccc1N1CCN(C(=O)c2ccc3nc[nH]c3c2)CC1	-2	0%	6	-2.1%	-2	-6.6	-12
21	Cc1ccc(NC2=CC(=O)CC(c3ccc(Cl)cc3)C2)cc1 (centres undefined)	-31	-10%	-5	11%	3	-2.1	3
12	Cc1cc(Cl)ccc1Oc1ccccc1C(=O)CC#N	-7	3%	-2	1.1%	-1	-0.8	.
3	COc1ccc(CC(=O)c2ccc(O)cc2O)cc1	1	?	0	1.5%	-2	-2.6	4
8	Cc1cc(=O)c(C(=O)O)c(C)n1-c1ccccc1	-1	.	.	2.1%	28	-2.1	-3

Filtered by structure, those above containing a nitro group on carbon (2)
no.	SMILES	D2 potentiator	Sfp inh	TRPV1 potentiator	PINK1 modulator	Six1-Eya2 inh	D2 ag	CtBP-E1A inh
5	COC(=O)c1ccccc1N=NNc1ccc([N+](=O)[O-])cc1	-2	.	.	1.7%	-10	-0.8	-3
6	C=CCS/C(N)=N\N=C\c1cc(Br)cc([N+](=O)[O-])c1O	-5	11%	.	6.2%	0	-3.2	-8
